Mtb hypoxia rep: inhibitors of hypoxia-regulated fluorescent reporter in Mycobacterium tuberculosis; M. tuberculosis hypoxia-regulated fluorescent reporter, fluorescence; fluorescence inhibition, % (test concentration not listed); actives 0.1% (n = 300,000);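 active = 35 to 45% if threefold the growth effect, above 45% if 1.5-fold the growth effect; inactive = the rest, general growth blockers included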;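 note: wells of about 50 µL received 100 nL stock; 0% = vehicle wells and 100% = reference inhibitor wells; whole bacteria with a GFP reporter of the hypoxia response; strong numbers were not always called active; many hits fall short of the cut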
Bead autofluor: flagged as autofluorescent in microsphere protease counterscreen. fluorescence intensity (no concentration beside the values). compound autofluorescence counterscreen, microsphere flow cytometry; hits give high values. actives 3.1% (n = 360,000). AID 624483;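 active = at least 3 SD above the mean of all compounds, about 16000 in these data; inconclusive = too few beads counted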;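 note: 100 nL of 1 mM stock went into each well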
PrP UTR inh: suppresses PrP 5' UTR mRNA reporter expression | cell-based PrP 5' UTR mRNA reporter, plate reader | actives 0.35% (n = 340,000) | AID 488862 | inhibition, % (test concentration not listed);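 active = every replicate at 50% or more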;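 note: 0 = median of the neutral control wells; tested in H4 reporter cells; numbers are from one replicate; inactives centre near -14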
BJeLR viability: BJeLR cell viability loss; BJeLR (HRASV12) viability, CellTiter-Glo ATP luminescence, 48 h; reference of the scale not given here; inhibition, % (no concentration beside the values); actives 0.17% (n = 300,000);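 active = replicate mean above 50%; inconclusive = above 50% but judged a plate artefact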;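 note: 50 nL library stock added to about 25 µL; numbers are from one replicate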
Sa ugtP lethal: kills S. aureus RN4220 lacking UgtP; growth inhibition, % (test concentration not listed); actives 0.54% (n = 330,000); S. aureus RN4220 ugtP deletion, OD600 growth, 16 h; some inactives read as strong as hits;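 active = z-score under -3 and OD600 up to 0.15 on both plates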;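 note: plate controls were untreated wells for no effect and antibiotic for full effect; wells of about 80 µL received 100 nL stock; the first replicate is given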
Sa RN4220 lethal: S. aureus RN4220 growth inhibition; OD600, 16 h; inhibition, % (test concentration not listed); actives 0.33% (n = 330,000); AID 1259311;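 active = z-score of -3 or lower and OD600 up to 0.18 on both plates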;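 note: plate controls were untreated cells for no effect and reference antibiotic for full effect; stock transfer was 100 nL into about 80 µL; one replicate is shown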
Mtb hypoxia rep growth: second read-out of Mtb hypoxia rep, no call of its own (marks repeat the call); growth inhibition, %; measured here: M. tuberculosis growth (absorbance);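 0% = vehicle and 100% = reference antibiotic; read after six days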
* = called active by the depositor; ? = inconclusive; / = no result given; & = joins results of further samples.

Each structure is followed by: Mtb hypoxia rep	Mtb hypoxia rep growth	Bead autofluor	PrP UTR inh	BJeLR viability	Sa ugtP lethal	Sa RN4220 lethal
O=[N+]([O-])c1ccc2c(c1)ncn2-c1ccccc1
    5.8	1.4	2491	-43.7	6.1	0.4	1.9
C=CCN1C(=O)CSc2ccc(C(=O)NC3CCCCC3)cc21
    6.0	5.2	5449	1.5	7.7	19.7	-0.8
Nc1nnc(CCc2ccccc2)s1
    1.4	-19.0	6523	-32.2	-2.8	4.7	4.6
C=CCOC(=O)c1ccccc1N
    12.1	12.5	5746	8.3	/	3.1	5.1
Cc1nc(-c2ccc(S(=O)(=O)Nc3cccc(S(N)(=O)=O)c3)s2)cs1
    -8.0	-5.5	3472	-18.3	-0.4	8.1	0.9
O=C(NC1CC1)C1CCN(C(=O)c2ccccc2Cl)CC1
    6.8	5.6	3474	-23.9	0.7	4.6	4.7
Cc1ccccc1OCCC(=O)OCC(=O)Nc1ccc2[nH]c(=O)[nH]c2c1
    13.5	3.4	6156	3.3	7.6	2.0	1.7
O=C(CN1CCN(c2ccc([N+](=O)[O-])cc2)CC1)Nc1ccccn1
    /	/	2163	-9.4	8.4	/	/
CCOC(=O)NC(=O)/C(C#N)=C\c1ccccc1
    /	/	2538	-14.8	-4.4	/	/
O=C(O)CSc1nnc(-c2ccc3c(c2)OCO3)n1-c1ccccc1
    -1.8	5.9	2037	-20.4	0.4	6.4	2.7
CC(=O)c1ccc(-n2nnnc2SCC(=O)N2CCN(C(=O)c3ccco3)CC2)cc1
    /	/	2310	-21.9	12.3	12.3	-1.1
O=Cc1ccccc1OCCOc1ccccc1C=O
    17.7	7.9	13208	-61.1	14.9	-2.9	9.9
CCOC(=O)/C=C1\CC(C(=O)OCC)Oc2c(OC)cccc21 (stereo not given)
    7.6	2.0	3841	-12.5	/	10.3	3.9
CCN(CC)c1nc(-c2cccc(OC)c2O)nc2ccccc12
    21.4	20.7	/	1.6	-4.1	-12.0	-2.9
CCc1noc(C)c1C(=O)Nc1ccc(F)c(F)c1F
    3.1	2.0	5313	-43.9	1.5	5.7	4.1
CC1C(=O)Nc2ccc(S(=O)(=O)N3CCCCCC3)cc21 (stereo not given)
    6.4	5.3	3627	-25.6	/	-0.9	3.6
CCS(=O)(=O)c1nc(S(=O)(=O)c2ccc(C)cc2)c(N2CCC(C)CC2)s1
    2.2	3.9	5772	0.2	7.4	9.7	2.4
CCOC(=O)N1CCC(NC(=O)c2ccc3nc(N4CCOCC4)sc3c2)CC1
    0.9	5.7	2540	1.8	-2.0	-4.5	-13.7
O=C(CCN1C(=O)c2cccc3cccc(c23)C1=O)N1CCOCC1
    11.7	0.2	4599	-52.6	7.0	1.9	4.1
COC(=O)c1nnn(CC(=O)NC(=O)Nc2ccccc2)c1C(=O)OC
    6.3	-0.8	9716	-15.5	8.0	5.4	1.8

Full records from above:
O=Cc1ccccc1OCCOc1ccccc1C=O across the screens: Mtb hypoxia rep: 17.7; Mtb hypoxia rep growth: 7.9; Bead autofluor: 13208; PrP UTR inh: -61.1; BJeLR viability: 14.9; Sa ugtP lethal: -2.9; Sa RN4220 lethal: 9.9
CCc1noc(C)c1C(=O)Nc1ccc(F)c(F)c1F across the screens: Mtb hypoxia rep: 3.1; Mtb hypoxia rep growth: 2.0; Bead autofluor: 5313; PrP UTR inh: -43.9; BJeLR viability: 1.5; Sa ugtP lethal: 5.7; Sa RN4220 lethal: 4.1

(listing goes on)
Each structure is followed by: Mtb hypoxia rep	Mtb hypoxia rep growth	Bead autofluor	PrP UTR inh	BJeLR viability	Sa ugtP lethal	Sa RN4220 lethal
CC(C)Cn1cc(C(=O)N2CCOCC2)c2c3ccccc3n(C)c2c1=O
    9.5	-1.7	10545	/	4.5	0.1	1.5
C[C@H](NC(=O)c1ccccc1)C(=O)N1CCN(Cc2ccc3c(c2)OCO3)CC1
    17.1	5.8	3828	-0.7	/	1.7	6.2
O=C(CSc1ncnc2c1nnn2Cc1ccccc1F)N1CCN(c2ccccc2)CC1
    2.8	13.2	2894	-12.7	5.0	-1.3	-4.5
CCOCCc1nnc(NC(=O)CS(=O)(=O)Cc2ccccc2)s1
    -1.4	0.6	5172	-14.3	0.5	2.6	0.7
O=C(CCc1ccccc1)Nc1nnc(-c2ccccn2)o1
    2.3	0.6	3210	-10.0	-12.2	3.6	0.6
CCN1CCN(Cc2ccc(NC(=O)c3ccc(C)c(NC(=O)c4cccc5[nH]ccc45)c3)cc2C(F)(F)F)CC1
    -5.6	0.9	3897&9511	8.0	-10.0	-9.0	-0.6
COc1ccc(Cc2nnc(SCC(=O)NCc3ccco3)o2)cc1
    17.6	11.1	4596	-13.6	-21.2	-5.5	5.5
C=CCn1c(SCC(=O)OCC)nc2cc(C(=O)NCc3ccco3)ccc2c1=O
    6.2	9.9	23049*	-20.6	0.3	0.4	0.4
CCOc1ccc(Oc2c(/C=N/NC(=O)C3CC3)c(C)nn2-c2ccccc2)cc1
    /	/	2430	-11.3	4.8	/	/
FC(F)(F)c1cccc(NC(=S)NCCN2CCOCC2)c1
    -2.9	10.5	1908	-31.2	1.7	4.8	2.5
CCC(=O)NC(=S)Nc1ccc2oc(-c3ccc(OC)cc3)nc2c1
    14.5	18.3	3863	-44.0	-9.2	15.9	4.6
CCOC(=O)c1oc2ccc(Br)cc2c1CSc1nnc(C)s1
    5.3	6.0	?	-17.6	1.3	9.6	12.7
CC1CCCCC1NC(=O)CSc1nncs1 (stereo not given)
    4.4	4.0	3834	-6.2	-11.2	-1.3	1.9
Cn1c(SCC(=O)Nc2ccc3c(c2)OCCO3)nnc1-c1ccco1
    -10.6	1.8	2321	-36.7	-5.3	-2.4	1.4
Cc1cccc(NC(=O)CSc2nc(C)c(Cc3ccccc3)c(=O)[nH]2)c1
    7.4	1.0	4226	-2.0	9.1	-0.6	5.6
CCCc1cc(C(=O)N2CCCC(N3CCN(c4ccc(F)cc4)CC3)C2)no1 (stereo not given)
    9.7	5.7	5640	-18.9	10.9	13.9	4.1
COCc1[nH]nc2c1C(C1C=CCCC1)C(C#N)=C(N)O2 (stereo not given)
    1.8	0.8	11648	-16.5	-0.3	-4.2	5.9
COc1cc(C=NNS(=O)(=O)c2ccccc2)ccc1OS(=O)(=O)c1ccc(C)cc1
    0.7	6.2	/	/	/	0.3	5.7

Compounds from the list above that have four or more nitrogen atoms, in the order listed:
Each structure is followed by: Mtb hypoxia rep	Mtb hypoxia rep growth	Bead autofluor	PrP UTR inh	BJeLR viability	Sa ugtP lethal	Sa RN4220 lethal
O=C(CN1CCN(c2ccc([N+](=O)[O-])cc2)CC1)Nc1ccccn1
    /	/	2163	-9.4	8.4	/	/
CC(=O)c1ccc(-n2nnnc2SCC(=O)N2CCN(C(=O)c3ccco3)CC2)cc1
    /	/	2310	-21.9	12.3	12.3	-1.1
CCOC(=O)N1CCC(NC(=O)c2ccc3nc(N4CCOCC4)sc3c2)CC1
    0.9	5.7	2540	1.8	-2.0	-4.5	-13.7
COC(=O)c1nnn(CC(=O)NC(=O)Nc2ccccc2)c1C(=O)OC
    6.3	-0.8	9716	-15.5	8.0	5.4	1.8
O=C(CSc1ncnc2c1nnn2Cc1ccccc1F)N1CCN(c2ccccc2)CC1
    2.8	13.2	2894	-12.7	5.0	-1.3	-4.5
O=C(CCc1ccccc1)Nc1nnc(-c2ccccn2)o1
    2.3	0.6	3210	-10.0	-12.2	3.6	0.6
CCN1CCN(Cc2ccc(NC(=O)c3ccc(C)c(NC(=O)c4cccc5[nH]ccc45)c3)cc2C(F)(F)F)CC1
    -5.6	0.9	3897&9511	8.0	-10.0	-9.0	-0.6
CCOc1ccc(Oc2c(/C=N/NC(=O)C3CC3)c(C)nn2-c2ccccc2)cc1
    /	/	2430	-11.3	4.8	/	/
Cn1c(SCC(=O)Nc2ccc3c(c2)OCCO3)nnc1-c1ccco1
    -10.6	1.8	2321	-36.7	-5.3	-2.4	1.4
CCCc1cc(C(=O)N2CCCC(N3CCN(c4ccc(F)cc4)CC3)C2)no1 (stereo not given)
    9.7	5.7	5640	-18.9	10.9	13.9	4.1
COCc1[nH]nc2c1C(C1C=CCCC1)C(C#N)=C(N)O2 (stereo not given)
    1.8	0.8	11648	-16.5	-0.3	-4.2	5.9
